Screens (PubChem BioAssay)
SARS PLpro yeast: SARS-CoV PLP inhibition in yeast; S. cerevisiae expressing SARS-CoV PLpro, growth rescue; control for the full effect not named in the record; Potency, µM (top dose mostly 32.9 µM), without a hit: at the highest dose activity, positive = growth rescue; hit rate 0.19% among 330,000; AID 485353; also: 0% is about no effect; nearly all actives have a fitted effect of over 55% in size; growth read by luminescence after 48 h
Cruzain inh noDet: cruzain (T. cruzi) inhibition without detergent. purified cruzain, Z-FR-AMC fluorescence, no detergent. Potency, µM, without a hit: max response, negative = inhibition, hits mostly inhibitors. hit rate 2.3% among 200,000; active = well fitted curve in the direction sought with a large enough effect; inconclusive = small, poorly fitted or top-dose-only effect, or another doubt; inactive = no such curve, though single readings can be large; an effect the other way counts as inactive or inconclusive;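 also: plate controls were enzyme without inhibitor for no effect and buffer without enzyme for full effect; nearly all actives have a fitted effect of over 40% in size; top concentration of the series not given in the record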
Target sequence (P25779 123-467 limits assumed): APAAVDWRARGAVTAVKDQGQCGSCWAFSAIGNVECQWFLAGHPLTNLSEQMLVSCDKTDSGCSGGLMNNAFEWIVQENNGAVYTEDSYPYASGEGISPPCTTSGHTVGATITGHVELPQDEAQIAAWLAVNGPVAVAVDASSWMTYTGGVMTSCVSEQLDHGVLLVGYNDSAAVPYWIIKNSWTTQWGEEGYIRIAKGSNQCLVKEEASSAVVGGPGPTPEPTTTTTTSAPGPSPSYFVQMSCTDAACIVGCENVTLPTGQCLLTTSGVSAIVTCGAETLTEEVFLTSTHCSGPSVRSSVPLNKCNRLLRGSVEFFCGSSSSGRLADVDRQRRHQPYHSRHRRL
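Purified cruzain at 1.5 nM, pre-incubated 15 min with compound at room temperature in 100 mM sodium acetate pH 5.5, 5 mM DTT, 0.00005% Triton X-100. Reaction started with 2 uM Z-FR-AMC; AMC fluorescence increase over 60 s gives rate.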
RE007 growth inh: less growth of the S. pombe RE007 Vpr strain. AID 651644. Potency, µM (doses to about 92.2 µM), for the others: at the top dose activity change, negative = less growth. hit rate 0.21% among 360,000. S. pombe RE007 Vpr strain, BacTiter-Glo ATP luminescence, 24 h; control for the full effect not named in the record; active = well fitted falling curve with a large enough effect; inconclusive = small, poorly fitted or top-dose-only effect; inactive = no such curve, though single readings can be large or run the other way;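 also: % is scaled to controls: 0 for no effect and ±100 for the full control effect; nearly all actives have a fitted effect of over 50% in size; the assay follows cell death caused by Vpr and the record does not say whether a fall means rescue or toxicity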
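Fission yeast strain RE007, carrying one chromosomally integrated HIV-1 vpr copy, was seeded at OD 0.01 in PMG+AL medium with 23 nL pinned compound. After 24 h at 30 °C and 99% humidity, viability was read by BacTiter-Glo luminescence.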
Lassa entry inh: blocks Lassa virus binding to or entry into cells; Lassa virus pseudotype entry inhibition, cell reporter; control for the full effect not named in the record; hit rate 1.2% among 300,000; Potency, µM (doses to about 37.9 µM), for inactives: top-dose activity change, negative = inhibition, hits mostly inhibitors; active means well fitted inhibition curve with a large enough effect; inconclusive means small, poorly fitted or top-dose-only effect, or effect the other way; inactive means flat fitted curve, though single readings scatter; tested in HEK293 cells; also: % is scaled to controls: 0 for no effect and ±100 for the full control effect; nearly all actives have a fitted effect of over 50% in size; luciferase read-out
Cruzain Triton: inhibitors of Trypanosoma cruzi cruzain with detergent | P25779 | purified cruzain, Z-FR-AMC fluorescence, 0.01% Triton | Potency, µM, inactives show max response, negative = inhibition, usual class: inhibitors | hit rate 0.43% among 200,000 | AID 1478; active = well fitted curve in the direction sought with a large enough effect; inconclusive = small, poorly fitted or top-dose-only effect, or another doubt; inactive = no such curve, though single readings can be large; an effect the other way counts as inactive or inconclusive;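 also: plate controls were neutral wells for no effect and buffer without enzyme for full effect; nearly all actives have a fitted effect of over 40% in size; top concentration of the series not given in the record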
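Compounds were screened in titration against cruzain (1.5 nM) with 0.01% Triton X-100 to counter colloidal aggregation. Activity was the AMC fluorescence increase over 60 s after adding 2 uM Z-FR-AMC at pH 5.5.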
NS1 function inh: inhibitors of influenza NS1 protein function; hit rate 0.4% among 270,000; S. cerevisiae slowed by influenza A NS1, growth recovery by OD600; AID 2326; Potency, µM (series often up to 46.1 µM), for inactives: at the top dose activity, positive = more growth; also: actives are rising curves; nearly all actives have a fitted effect of over 50% in size
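In this qHTS, NS1 from influenza A is expressed in budding yeast, where it slows growth. Cells are switched from glucose to 2% galactose medium (pH 6.0, -URA), treated with compound, and growth recovery is read at OD600.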
Marburg entry inh: inhibitors of Marburg virus binding or cell entry. AID 540276. Marburg virus pseudotyped entry inhibition, cell reporter; control for the full effect not named in the record; about a third of the inactives were read at about 46 µM. hit rate 1.8% among 300,000. Potency, µM (doses to about 37.8 µM), inactives show top-dose activity change, negative = inhibition, most hits filed as inhibitors; active = well fitted inhibition curve with a large enough effect; inconclusive = small, poorly fitted or top-dose-only effect, or effect the other way; inactive = flat fitted curve, though single readings scatter; tested in HEK293 cells; about a fifth of its hits are not listed in these tables; also: % is scaled to controls: 0 for no effect and ±100 for the full control effect; luciferase read-out
StopGo reporter: lowers the luciferase signal of an FMDV 2A StopGo reporter | Potency, µM (titrated, usually from 57.9 µM), inactives show at the highest dose signal change, negative = less light | human cells with a luciferase reporter of 2A StopGo recoding; control for the full effect not named in the record | hit rate 1.2% among 410,000; active = well fitted falling curve with a large enough effect; inconclusive = small, poorly fitted or top-dose-only effect; inactive = no such curve, though single readings can be large or run the other way; tested in HEK293T cells; also: % is scaled to controls: 0 for no effect and ±100 for the full control effect; nearly all actives have a fitted effect of over 45% in size; luciferase light after 4 h
An asterisk follows results filed as active; ? = inconclusive; / = not tested or not shown; & = joins results of further samples; [ ] = remark or other dose. Unless noted, calls follow the shape of the dose curve; as a rule, active means well fitted rising curve with a large enough effect; inconclusive means small, poorly fitted or top-dose-only effect; inactive means no such curve, though single readings can be large or run the other way. Potency is read from the fitted curve at half-maximal effect.

SMILES | SARS PLpro yeast | Cruzain inh noDet | RE007 growth inh | Lassa entry inh | Cruzain Triton | NS1 function inh | Marburg entry inh | StopGo reporter
CCOC(=O)c1ccccc1NC(=O)COC(=O)CCNS(=O)(=O)c1ccc(C)c(C)c1 | -7.9% | / | 4.1% | 3.2% | / | / | 7.4% | -9.6%
O=c1[nH]c(SCc2n[nH]c(=S)n2-c2ccccc2)nc2ccccc12 | 0.7% | 0.1% | 26.7% | -1.1% | -2.5% | -10.0% | ? | -10.0%
O=C(c1ccccc1)c1ccc(OCCO)cc1 | 0.6% | / | -5.5% | / | / | 1.7% | / | 55.3%[activator]
CCn1cc(C(=O)NCCCN(CC(C)C)CC(C)C)c(=O)c2cc(S(=O)(=O)N3CCOCC3)ccc21 | 3.4% | / | 3.3% | -1.4%[46.1 µM] | / | 13.9% | -6.7%[46.1 µM] | 0.9%
C(=N\Nc1nc2ccccc2[nH]1)/C1CCCCC1 | 11.6% | / | -10.5% | ? | / | / | 4.7%[46.1 µM] | 19.1%
CC1CCC(NC(=O)CN2C(=O)C3CCCN3c3ncc(Cl)cc32)CC1 (stereo not given) | -2.3% | ? | / | / | -4.7% | ? | 0.5% | /
Cc1c(C(=O)NCCCN2CCCCC2)oc2ccc3c(c12)C(O)CC1(CCCCC1)O3 (stereo not given) | -1.4% | / | -22.7% | / | / | 4.2% | / | 0.0%
COc1ccc2c(c1)c(C(=O)CN1CCN(c3ccccc3)CC1)c(C)n2C | -1.9% | / | 4.6% | -8.5% | / | -5.4% | -23.7% | ?
O=C1c2[nH]nc(-c3ccccc3O)c2C(c2cccc(Cl)c2)N1Cc1ccco1 (stereo not given) | -12.8% | -2.2% | 14.5% | ? | -11.8% | / | 13µM* | ?
Cc1cc(C)c2oc(-c3cccc(NC(=O)c4ccc(Br)o4)c3)nc2c1 | / | 5.4% | / | 4.7%[46.1 µM] | -1.8% | / | / | 0.8%
O=C(N/C(=C\c1ccccc1)C(=O)N1CCCCC1)c1ccco1 | -2.8% | / | 7.2% | -11.3%[46.1 µM] | / | -2.1% | -1.8%[46.1 µM] | 0.0%
Cc1ccc(S(=O)(=O)C(CNC(=O)C(=O)NCc2ccc(Cl)cc2)c2cccs2)cc1 (stereo not given) | / | -20.1% | / | -14.7%[46.1 µM] | -2.8% | / | / | -8.4%
CCCCOC(=O)Cn1c2ccc(OC)cc2c2nc3ccccc3nc21 | 0.1% | 5.9% | -2.1% | 2.8% | -1.6% | -1.2% | ? | -14.4%
CC1CN(S(=O)(=O)c2cn(C)c(=O)n(C)c2=O)CC(C)O1 (stereo not given) | ? | -3.9% | 3.1% | / | 5.5% | -85.5% | / | -3.1%
O=C(c1ccccc1Cl)N1CCCC(c2nc3c(nnn3Cc3ccccc3)c(=O)[nH]2)C1 (stereo not given) | -2.3% | 17.4% | 11.4% | ? | -0.6% | -2.3% | -1.2% | -24.2%
CCCCN(C(=O)c1ccco1)C1CCS(=O)(=O)C1 (stereo not given) | -0.8% | / | 2.7% | -0.5% | / | / | 19.0% | -11.3%
O=C(CCCOc1ccc(Cl)cc1Cl)NCCc1nnc2ccccn12 | 1.9% | / | -6.1% | -24.3%[46.1 µM] | / | 0.4% | -2.7%[46.1 µM] | -9.2%
CCN(CC)/C(=N/S(=O)(=O)c1ccc(C)cc1)c1ccccc1 | -11.3% | 5.5% | -1.1% | -18.4% | -2.9% | -0.7% | ? | 49.8%[activator]
CCn1cc(C2=NC(CC(C)C)CO2)c2ccccc21 (stereo not given) | -2.0% | / | -7.5% | 15.1% | / | -10.1% | -12.9% | 18.8%
CC(C)=CCN1CCN(Cc2cc(CC(C)C)n[nH]2)CC1CCO (stereo not given) | 1.2% | / | 1.7% | 16.7% | / | 5.3% | -13.7%[46.1 µM] | -3.4%
Cc1nn(Cc2ccccc2Cl)c(C)c1NC(=O)c1noc(C(C)C)c1[N+](=O)[O-] | -2.1% | / | -0.8% | / | / | 5.3% | / | 15.8%
Cc1ccc2c(c1)-c1c(cnn1CC(=O)N(CCC#N)c1ccccc1)CO2 | -0.3% | ? | 8.3% | / | -5.2% | -9.3% | / | -15.6%
COc1ccccc1CNC(=O)c1nnn(CC(=O)Nc2c(C)cccc2C)c1N | / | -5.0% | / | ? | -0.1% | / | / | 14.7%
O=C(NCCC(=O)N1CCN(c2ccccc2O)CC1)c1ccc(Cl)cc1 | 2.5% | / | -2.2% | ? | / | / | 6.3% | -2.6%
O=C(NNC(=O)C12CC3CC(CC(O)(C3)C1)C2)c1csc(N2CCOCC2)n1 | 0.3% | / | -4.6% | -0.5% | / | -0.8% | 12.8% | ?
COc1cc(NC(=S)Nc2cccc(Cl)c2Cl)c(OC)cc1Cl | 1.7% | -3.2% | -15.9% | -5.2% | -5.8% | 14.3% | -0.9% | -29.2%
COc1cc(OC)cc(C(=O)NC(=S)Nc2ccc(N3CCCC3)cc2)c1 | -6.9% | ? | -4.1% | ? | -9.0% | 13.3% | ? | -6.9%
COc1ccc(C(N)CCc2ccc(C)o2)cc1 (stereo not given) | -0.8% | ? | 7.2% | -5.9% | -1.1% | 2.9% | -1.5% | 0.0%
O=C(Nc1ccc(Cl)cn1)C1CCCN1S(=O)(=O)c1cccc2ccccc12 (stereo not given) | -19.7% | ? | -17.3%[3.69 µM] | -5.2% | 1.5% | -0.1% | -21.5% | ?
CCOC(=O)c1c(S(=O)(=O)N2CCCCCC2)c(C)n(C)c1C | 2.3% | / | -0.2% | 6.4%[46.1 µM] | / | 4.5% | 13.9%[46.1 µM] | 3.9%
CCCN(CCC)C(=O)c1ccc2c(c1)N(Cc1ccccc1)C(=O)CS2=O (stereo not given) | -15.3% | -9.4% | 8.0% | 2.0% | -0.4% | ? | -32.0% | 14.4%
C#CCOCCOCCOCCNc1nc(N2CCN(C(=O)[C@H](Cc3cc4ccccc4[nH]3)n3cc(C(N)CC(C)C)nn3)CC2)nc(N2CCN(C(=O)[C@H](CCC(=O)O)n3cc(C(N)[C@H](C)CC)nn3)CC2)n1 (stereo not given in full) | -3.7% | / | 10.7% | / | / | 3.0% | / | -1.4%
CN(C)C(=S)Nc1ccc(N2CCOCC2)cc1 | 0.9% | / | 4.2% | / | / | 0.9% | / | 5.9%
Cc1nc2ccccn2c1C(=O)N=Nc1c(O)n(CCC(C)C)c2ccccc12 | -1.8% | ? | 5.9% | / | -9.2% | 9.1% | / | ?
CCn1c(C)cc2c(c1=O)C(c1ccc3c(c1)OCO3)C(C#N)=C(N)O2 (stereo not given) | -1.4% | 3.1% | -9.1% | -21.9% | 5.7% | -4.8% | -4.4% | 18.9%
CCCCN(c1ccccc1)S(=O)(=O)c1ccc2c(c1)CCN2C(=O)CCC(=O)O | -1.6% | ? | -2.0% | 10.9% | 1.2% | -0.2% | 1.6% | 10.5%
CCc1ccc(N(CC)C(=O)Cc2c(C(=O)O)n(C)c3ccccc23)cc1 | -1.7% | / | 5.5% | 15.9% | / | 6.5% | 15.2% | -10.9%
O=C(NCC1CCCO1)c1cc2ccccc2[nH]1 (stereo not given) | 5.0% | -1.3% | 14.2% | ? | -7.1% | 1.3% | 17.2% | 19.4%
CCOc1cc(N2CCOCC2)c(OCC)cc1NC(=O)c1ccccc1 | 6.1% | / | 1.3% | 8.6% | / | / | -1.0%[46.1 µM] | -14.1%
COc1ccccc1CNC(=O)Cn1cccc1C(=O)c1ccccc1C | 0.5% | / | -6.3% | 29.3%[46.1 µM] | / | -22.3% | ? | 15.8%

Random excerpt: 2 entries already listed.
SMILES | SARS PLpro yeast | Cruzain inh noDet | RE007 growth inh | Lassa entry inh | Cruzain Triton | NS1 function inh | Marburg entry inh | StopGo reporter
CCCN(CCC)C(=O)c1ccc2c(c1)N(Cc1ccccc1)C(=O)CS2=O (stereo not given) | -15.3% | -9.4% | 8.0% | 2.0% | -0.4% | ? | -32.0% | 14.4%
COc1cc(OC)cc(C(=O)NC(=S)Nc2ccc(N3CCCC3)cc2)c1 | -6.9% | ? | -4.1% | ? | -9.0% | 13.3% | ? | -6.9%

Next part:
SMILES | SARS PLpro yeast | Cruzain inh noDet | RE007 growth inh | Lassa entry inh | Cruzain Triton | NS1 function inh | Marburg entry inh | StopGo reporter
Cc1cc[n+](CC(=O)c2cccc([N+](=O)[O-])c2)c2ccccc12 | 4.9% | / | 0.5% | / | / | 5.3% | / | 1.2%
NS(=O)(=O)c1cccc2c1c([N+](=O)[O-])cc1[nH]c(=O)c(=O)[nH]c12 | / | 3.8% | / | / | -15.2% | / | 7.7%&7.7% | -1.8%
Brc1ccc(-c2cnnc(N3CCCC3)n2)cc1 | -15.8% | 8.6% | -6.7% | -26.2% | 0.8% | -112.4% | ? | 3.0%
O=[N+]([O-])c1ccc(N2CCN(S(=O)(=O)c3ccc4ccccc4c3)CC2)cc1NCc1ccco1 | 3.5% | 7.94µM* | 3.0% | 0.3% | -4.1% | 16.1% | -0.7% | -24.9%
COC(=O)C1=CN(Cc2ccccc2)C=C(C(=O)OC)C1c1ccc(OC)c(OC)c1 | 1.7% | / | -7.3% | / | / | 23.3% | / | -3.1%
Cn1c(=O)c2cc(S(=O)(=O)NCCC(=O)NC3CCCCCC3)ccc2n(C)c1=O | 2.7% | 5.6% | -6.7% | -0.5% | -0.1% | -4.3% | 7.8% | /
CCc1ccc(/C=N/NC(=O)c2nnn(-c3nonc3N)c2C(C)C)cc1 | 18.3% | / | -28.3% | ? | / | 15.9% | ? | -6.9%
COc1cc(/C=N/NC(=O)CCC(=O)NCc2ccccc2)cc(OC)c1OC | 11.5% | 2.1% | 1.0% | -3.7% | -2.9% | -13.7% | 0.5% | -15.2%
Cc1ccc(-c2cc(C(=O)N3CCOCC3)c3ccccc3n2)o1 | -10.0% | / | -20.4% | 11.6%[46.1 µM] | / | / | 2.7%[46.1 µM] | 7.9%
